High-throughput results (PubChem BioAssay)
Sfp inh = Sfp phosphopantetheinyl transferase inhibition. Q9F4F7. Biochemical Sfp PPTase activity, qHTS. Potency, µM, for inactives: max response, negative = inhibition, usual class: inhibitors. 310,000 tested, 3.5% active. AID 1490; active = well fitted inhibition curve with a large enough effect; inconclusive = small, poorly fitted or top-dose-only effect, or another doubt; inactive = no such curve, though single readings can be large or run the other way;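 also: the enzyme is Sfp with the accession as filed and its product quenches rhodamine fluorescence; potency is read from the fitted curve at half-maximal effect; 0% = enzyme reaction without inhibitor and -100% = no enzyme wells; top concentration of the series not given in the record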
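Step 1, compound plus 15 nM Sfp-PPTase, 15 min, room temperature. Step 2, add rhodamine-CoA (5 uM) and BHQ-2-YbbR (12.5 uM). Step 3, read 525/598 nm fluorescence at 0 and 30 min.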
gsp antag = antagonizes gsp, the McCune-Albright syndrome mutation. gsp-mutant cells, cAMP HTRF, 30 min; control for the full effect not named in the record. Potency, µM (highest dose often 76.9 µM), for inactives: at the highest dose activity change, negative = inhibition, hits mostly inhibitors. 340,000 tested, 0.4% active; active = falling curve of any shape with a large fitted effect; inconclusive = falling curve, mostly with a smaller effect; inactive = flat or rising curve; cell line not stated here;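 also: intracellular cAMP measured with PDE inhibitor Ro 20-1724 present during compound exposure; potency is read from the fitted curve at half-maximal effect; % is scaled to controls: 0 for no effect and ±100 for the full control effect; nearly all actives have a fitted effect of over 65% in size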
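G418-selected cells were plated in DMEM/10% FBS for 16-24 h at 37C, then treated with compounds plus the PDE inhibitor […] (300 uM solution added) for 30 min at 37C. Intracellular cAMP was measured by HTRF after 30 min lysis at room temperature.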
Menin-MLL FL inh = inhibitors of human menin-MLL interaction, wild-type MLL peptide; Fluorescence polarization, fluorescein-MLL peptide displacement from menin; 290,000 tested, under 10 active; FP activity change, % at 61.4 µM; inconclusive = falling polarisation curve, or a change in total fluorescence; inactive = total fluorescence flat and polarisation flat or rising; no compound was filed as active; the % refers to the polarisation; negative = inhibition;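 also: % of control where 0% means no effect; inhibitors lower the polarisation; unlabelled MLL peptide was the positive control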
ClpP mod = qHTS Assay for Activators of ClpP | AID 651965, 2013 | Potency, µM (top dose mostly 57.5 µM), for the others: at the highest dose activity change, negative = active | 340,000 tested, 1.9% active | purified B. subtilis ClpP, FRET peptide cleavage, 20 min; active = well fitted falling curve with a large enough effect; inconclusive = small, poorly fitted or top-dose-only effect; inactive = no such curve, though single readings can be large or run the other way; also: potency is read from the fitted curve at half-maximal effect; the source files actives as falling curves though it sought activators and does not explain the sign; nearly all actives have a fitted effect of over 65% in size; many hits overshoot -100%
Target sequence (P80244 whole entry, looked up): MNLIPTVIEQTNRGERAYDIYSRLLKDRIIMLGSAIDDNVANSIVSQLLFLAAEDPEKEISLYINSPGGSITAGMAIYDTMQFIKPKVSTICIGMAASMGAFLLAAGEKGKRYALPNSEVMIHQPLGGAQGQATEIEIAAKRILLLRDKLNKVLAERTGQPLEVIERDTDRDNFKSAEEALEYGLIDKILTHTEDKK
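Buffer: 100 mM Tris/HCl pH8, 100 mM KCl, 0.05% low protease BSA, 2.5% glycerol, 0.01% Tween-20. ClpP 10 microg/mL final; 20 min RT; delta FRET normalized to ADEP and DMSO controls.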
TRPML1 inh = inhibitors of human TRPML1 channel. AID 624415. TRPML1-inducible cells, Ca2+ dye fluorescence, FDSS; stronger effect = lower value; inhibition of EC80 agonist-evoked calcium signal. activity change, negative = inhibition, % (test concentration not listed). 390,000 tested, 0.02% active; in the data active means activity change below about -50%; inconclusive means about -30% to -50%; inactive means above about -30%;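 also: stimulus is agonist 54-4 at its EC80 concentration; % is scaled to controls: 0 for no effect and ±100 for the full control effect; compound concentration not given in the record; the text of the record puts the active cut at -80%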
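TRPML1-DL cells, Tet-induced overnight (~16 h, 37 °C) at 1,500 cells/well, were loaded with Ca8 no-wash dye plus quencher for 45-90 min at room temperature. Compounds were pinned during FDSS kinetic reading; agonist 54-4 at EC80 (4 uM final) then added.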
TRPV1 PAM = enhances activation of the human vanilloid receptor TRPV1; 320,000 tested, 0.02% active; potentiation, % at 8.33 µM; AID 540277; TRPV1-expressing cells, Fluo-8 calcium influx, capsaicin EC20 potentiation; host cell line not named in the record; control for the full effect not named in the record; active means potentiation above 80%; inconclusive means 30% to 80%; inactive means below 30%; also: 0% is about no effect
Target sequence (Q8NER1 whole entry, looked up): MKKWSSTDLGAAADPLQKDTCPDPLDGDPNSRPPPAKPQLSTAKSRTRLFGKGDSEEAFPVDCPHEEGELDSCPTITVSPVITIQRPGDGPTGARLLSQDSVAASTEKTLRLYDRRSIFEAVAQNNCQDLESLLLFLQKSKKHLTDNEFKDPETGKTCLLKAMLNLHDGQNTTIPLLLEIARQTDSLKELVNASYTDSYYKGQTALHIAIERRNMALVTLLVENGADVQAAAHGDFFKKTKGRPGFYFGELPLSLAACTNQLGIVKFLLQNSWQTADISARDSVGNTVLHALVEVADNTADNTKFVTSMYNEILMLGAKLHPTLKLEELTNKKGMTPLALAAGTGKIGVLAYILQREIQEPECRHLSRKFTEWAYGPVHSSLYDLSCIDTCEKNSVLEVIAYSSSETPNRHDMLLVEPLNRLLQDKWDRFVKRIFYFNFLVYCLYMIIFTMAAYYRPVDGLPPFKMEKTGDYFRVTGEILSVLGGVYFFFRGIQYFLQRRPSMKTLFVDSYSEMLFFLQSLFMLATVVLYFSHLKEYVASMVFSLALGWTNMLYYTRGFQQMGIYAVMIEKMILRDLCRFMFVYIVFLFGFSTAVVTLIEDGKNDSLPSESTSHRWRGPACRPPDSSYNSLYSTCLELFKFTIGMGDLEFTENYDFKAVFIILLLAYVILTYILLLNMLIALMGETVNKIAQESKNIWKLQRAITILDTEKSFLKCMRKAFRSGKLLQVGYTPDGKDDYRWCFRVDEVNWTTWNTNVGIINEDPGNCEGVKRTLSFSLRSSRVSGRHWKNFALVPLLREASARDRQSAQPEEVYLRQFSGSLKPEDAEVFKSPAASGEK
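TRPV1-expressing cells were cultured overnight at 35.5C and loaded with Fluo-8 calcium dye for 40 to 90 min at room temperature. After a 10 s baseline, compound was added and calcium influx was read kinetically for 3 min (ex 480/em 520 nm).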
gsp agonist = activates gsp, the McCune-Albright syndrome mutation. Potency, µM (series often up to 76.9 µM), inactives show top-dose activation (cAMP increase), hits mostly activators. 340,000 tested, 0.13% active. gsp mutant cells, cAMP HTRF, 30 min; control for the full effect not named in the record. AID 624287; active = well fitted activation curve with a large enough effect; inconclusive = small, poorly fitted or top-dose-only effect, or another doubt; inactive = no such curve, though single readings can be large or run the other way; cell line not stated here;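 also: phosphodiesterase inhibitor Ro 20-1724 added with compounds to block cAMP breakdown; potency is read from the fitted curve at half-maximal effect; nearly all actives have a fitted effect of over 60% in size; about a fifth of the inactives were tested at one dose only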
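Cells stably selected in G418 were plated at 2000/well, grown 16-24 hr, then given compounds in DMSO with the PDE inhibitor […] (300 uM solution added) for 30 min at 37C; cAMP was read by HTRF.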
An asterisk follows results filed as active; u = inconclusive; x = no result given; [ ] = remark or other dose.

SMILES | Sfp inh | gsp antag | Menin-MLL FL inh | ClpP mod | TRPML1 inh | TRPV1 PAM | gsp agonist
CC(C)N1C(=S)SC(C)(C)C1n1oc(=O)n(-c2cccc(Cl)c2)c1=O (stereo not given) | 14% | 15% | 1.7 | 2.4% | -3 | -1 | -2%
COc1cc2c(c(OC)c1OC)-c1ccc(O)cc1[C@@H](NC(C)=O)CC2 | x | 10% | x | -3.5% | -5 | -25 | 2%
CCNC(=O)C1OC(n2cnc3c(N)ncnc32)C(O)C1O (stereo not given) | x | 3% | x | -1.0% | -8 | x | 21%
O=P(Nc1ccccc1)(Nc1ccccc1)Oc1ccccc1 | 3% | 5% | -2.8 | x | -2 | 9 | 1%[15.4 µM]
[N-]=[N+]=NCc1cn2cccnc2n1 | u | -8% | -1.3 | x | 16 | 0 | 23%
O=C1CC(=O)N(Cc2ccccc2)C(=O)N1 | x | 8% | x | -24% | 10 | x | -21%
O=C(COC(=O)Cc1ccccc1)Nc1ncc(Cl)cc1Cl | 13% | -8% | 0.8 | -2.0% | 24 | -20 | 5%
CCOc1ccccc1-n1c(O)c(C=NCCCN(CC)CC)c(=O)[nH]c1=O | 5% | 3% | 0.7 | 32µM* | 13 | 26 | u
CCN(CC)C(=O)c1ccc(NC(=O)CN2CCc3cc(OC)c(OC)cc3C2)cc1 | 16% | -5% | -0.5 | -1.1% | -13 | -2 | 7%[15.4 µM]
Cc1cccc(OCC(=O)N2CCN(Cc3ccncc3)CC2)c1 | u | -12% | 1.2 | 0.5% | 4 | 0 | -6%
CC(=O)N1CCC(N2CCCC(C(=O)c3cccc(Cl)c3)C2)CC1 (stereo not given) | 10% | 14% | -0.1 | x | 31 | 13 | 5%[15.4 µM]
CNCC1(c2ccccc2)CCCC1 | 10% | 6% | 0.7 | -1.0% | 22 | 4 | 2%
COc1ccc2c(c1O)C13CCN(C)C(C2)C1CCC(=O)C3 (stereo not given) | x | 6% | x | -1.0% | 1 | x | 0%
CCn1c(O)c(N=Nc2ccc(S(=O)(=O)N3CCOCC3)cc2)c(=O)n(CC)c1=S | -24% | -30% | 0.1 | 0.3% | x | -11 | u
O=C1C2C3CCC(O3)C2C(=O)N1CCO (stereo not given) | -7% | 0% | -11 | x | 10 | 23 | 20%
Cc1ccc2c(c1)CC1(CN2C)C(=O)NC(=O)N(CCC2=CCCCC2)C1=O (stereo not given) | -21% | -7% | -0.4 | 16µM* | 3 | -10 | 7%
c1ccc(-c2nnc(SCc3nc4ccccc4[nH]3)o2)cc1 | 7% | -7% | u | -16% | 1 | -26 | u
CCCCn1c(=O)c(C(=O)Nc2ncccc2C)c(O)c2ccccc21 | 4% | 2% | -0.3 | x | -5 | 18 | 16%
CCN(CC)c1ccc(N=Cc2c(O)n(-c3ccc(Cl)cc3)c(=O)[nH]c2=O)cc1 | -22% | -4% | u | -1.1% | 19 | 5 | -17%
CC(=O)c1c(C)n(Cc2ccccc2)c2ccc(O)cc12 | 3% | 3% | -0.7 | -1.1% | 10 | -4 | 0%
c1ccc2sc(C3CCCNC3)nc2c1 (stereo not given) | 10% | 2% | 1.7 | -0.7% | 0 | 12 | u
Cc1ccc(-n2c(O)c(/C=N/N3CCCCCC3)c(=O)[nH]c2=O)cc1C | -1% | -5% | 8.2 | x | 31 | 0 | 21%[15.4 µM]
Fc1ccc(CCNCc2ccc(Cl)c(Cl)c2)cc1 | -1% | 13% | -2.3 | -3.6% | -1 | 0 | 18%
Cc1cccc(CN2CCN(c3ccc(Cl)cc3)CC2)c1 | -15% | 4% | 3.4 | 2.0% | -3 | 2 | -24%
Cc1cc(OCC(=O)NC(Cc2ccc(Cl)cc2)C(=O)O)c2c3c(c(=O)oc2c1)CCCC3 (stereo not given) | 10% | 1% | u | 4.3% | x | 18 | x
Cc1nn(CC(C)C)c(Cl)c1C(=O)NC1CCCCC1 | x | 3% | x | -17% | 27 | -3 | 17%[15.4 µM]
Cc1sc(-n2c(C)cc(C=C3C(=O)NC(=O)NC3=O)c2C)c(C#N)c1C | 50µM* | 12% | u | x | 48 | -18 | -68%[inhibitor]
COc1ccc(OC)c(-n2c(O)c(C=NCCN3CCNCC3)c(=O)[nH]c2=S)c1 | 14% | 6% | -0.4 | 0.1% | x | -1 | 7%
COc1cccc(C(=O)N2C[C@H]3C[C@@H](C2)c2cccc(=O)n2C3)c1 | 15% | 7% | -3.2 | -4.8% | x | 0 | x
Cc1ccc(CN(Cc2ccccc2)C(=S)NCC(=O)N2CCC3(CC2)OCCO3)o1 | -12% | -17% | -5.7 | 0.2% | 8 | -52 | 35%[15.4 µM]
CN1CN=C(N[N+](=O)[O-])N(Cc2ccco2)C1 | 10% | 5% | 4.3 | -1.3% | 30 | -11 | -61%[inhibitor]
Cc1ccc2cc(CNCCc3ccccc3C)c(=O)[nH]c2c1 | 5% | 16% | -0.6 | -1.4% | 3 | 20 | 3%[15.4 µM]
O=[N+]([O-])c1oc2ccc3ccccc3c2c1CCO | x | 1% | x | -1.6% | 27 | x | 16%
CCCC/C(=N/O)c1c(C)[nH]c2ccccc12 | 22% | 5% | 3.1 | 28µM* | 71 | -10 | -22%[15.4 µM]
O=C(CSc1nc2ccccc2c(=O)[nH]1)Nc1ccc(Br)cc1 | 13% | 10% | x | -1.6% | -9 | -12 | u
O=C(Nc1ccccn1)NC12CC3CC(CC(C3)C1)C2 | 12% | 1% | 5.2 | -27% | -21 | 1 | -3%
c1ccc2c(CCNC3CCCCC3)c[nH]c2c1 | 50µM* | 7% | -0.8 | x | -6 | -6 | 8%
S=c1[nH]nc(C2CC2)n1Cc1ccccc1 | 56µM* | 5% | 3.5 | x | 3 | 10 | 0%
CC1CCN(c2nc(-c3ccc(F)cc3)cc(C(F)(F)F)n2)CC1 | 1% | 15% | 0.2 | u | 7 | 1 | -7%
O=C(/C=C/c1ccc(F)cc1)NC(=S)N1C[C@H]2C[C@H](C1)c1cccc(=O)n1C2 | -4% | 4% | 20 | -1.7% | x | -2 | x
C1CC2NCCC3NCCC(N1)N32 (stereo not given) | 8% | -3% | 7.6 | 1.5% | -7 | -12 | -42%
COc1ccc(NC(=O)[C@@H](NC(=O)N2C[C@H]3C[C@@H](C2)c2cccc(=O)n2C3)C(C)C)cc1 | 13% | 12% | 1.4 | -2.6% | x | -6 | x
Clc1cc(Cl)cc(NC2=NCCS2)c1 | 6% | -10% | 1.1 | x | 9 | x | 12%[15.4 µM]
COc1ccc(CCn2c(O)c(C=Nc3ccc(NC(C)=O)cc3)c(=O)[nH]c2=O)cc1OC | 6% | -5% | 13 | x | 20 | 8 | u
CCN1CCN(c2ccc(N)cc2)CC1 | 5% | -8% | 4.1 | -6.8% | -5 | 0 | -73%[inhibitor]
COCCNC(=O)c1c(NC(=O)c2ccc(Br)o2)n(Cc2ccccc2)c2nc3ccccc3nc12 | 28µM* | -3% | u | -29% | 6 | -1 | 8%
CC1=C(C/C(C)=C/c2ccccc2)/C(=C/CO)[C@H](O)[C@](C)(O)C12CC2 | x | 11% | x | -0.9% | 16 | x | 28%
CN1CCN(c2nc(N)c(Br)c(Cl)n2)CC1 | 18% | -4% | 2.2 | -0.2% | 1 | -5 | u
CN1CCC(OC(=O)c2ccccc2)CC1 | -6% | 6% | -0.7 | 1.2% | 2 | 6 | 46%
C=CCn1c(O)c(C(C)=Nc2ccc3c(c2)CCC3)c(=O)[nH]c1=O | 1% | -3% | 0.9 | x | 4 | -15 | 15%[15.4 µM]
O=C1NC(=O)N(c2ccc(F)cc2)C(=O)/C1=C/c1ccsc1 | u | -12% | u | x | -28 | 5 | 12%
O=P1(Oc2ccccc2)CC=CC(COC(c2ccccc2)(c2ccccc2)c2ccccc2)O1 (stereo not given) | -3% | x | 5.4 | x | -13 | x | x
O=C(Nc1ccccc1)N1Cc2ccccc2-n2nncc2C1 | x | 2% | x | -0.8% | 39 | x | x
O=C1/C(=C/c2cc3c(cc2Cl)OCO3)N2CCC1CC2 | 8% | x | 1.7 | x | x | 2 | x
COC(=O)C1=C(c2cccc(OCc3ccccc3)c2)C[C@@H]2CC[C@H]1N2C(=O)NCc1ccc(Cl)cc1 | x | -11% | x | -2.5% | 15 | -7 | -4%
CCOc1cc(-c2nc3c(C)cccn3c2NCC2CCCO2)ccc1O (stereo not given) | -8% | 0% | 0.9 | 14µM* | -23 | 5 | u
COc1ccccc1NC(=O)COC(=O)c1cn(C)c2ccccc12 | x | u | x | 1.1% | 6 | 17 | -1%
Cc1ccc(-c2nc3ccccc3c(=O)n2-c2cc(C)ccn2)cc1 | 7% | -5% | -0.6 | -0.2% | 3 | -8 | u
O=c1[nH]c(=O)n(CCC2=CCCCC2)c(O)c1/C=N/Nc1ccccc1 | 2% | -2% | 2.1 | -2.7% | 36 | -4 | -62%[inhibitor]
COc1cc(OC)c(OC)cc1CNCCc1cccc(F)c1 | 14% | 6% | 1.1 | -1.4% | 33 | 1 | 1%
(list continues)
SMILES | Sfp inh | gsp antag | Menin-MLL FL inh | ClpP mod | TRPML1 inh | TRPV1 PAM | gsp agonist
CC(C)CCn1c(=O)c(C(=O)NCc2ccco2)c(O)c2ccccc21 | 9% | 5% | -1.6 | x | -3 | 7 | -6%[15.4 µM]
COc1ccc(-n2c(-c3ccccc3Br)nc3ccccc3c2=O)cc1 | 2% | -31% | 5.4 | x | 25 | -20 | -1%
N#CC1c2ccccc2C=CN1C(=O)c1ccc(N(CCCl)CCCl)cc1 (stereo not given) | x | x | x | 4.0% | 7 | x | -45%
S=c1[nH]nc(Cn2c(-c3ccccn3)nc3ccccc32)n1-c1ccc2c(c1)OCCO2 | 79µM* | -5% | 4.0 | x | -5 | 4 | 3%[15.4 µM]
Cn1c(N2CCNCC2)nc2ccccc21 | -3% | 7% | 1.7 | 1.7% | -5 | -10 | u
COC(=O)C1=C(c2c(C)noc2C)C[C@@H]2CC[C@H]1N2C(=O)NCCOc1ccccc1Cl | x | 7% | x | 0.8% | -2 | -9 | x

These rows are one share of the data; rates above refer to the full screens.
